# Compound activity as filed in PubChem BioAssay.
# ALR H2O2 inh – blocks human ALR sulfhydryl oxidase activity; purified ALR, DTT oxidation, H2O2 HRP-luminol luminescence; P55789; 290,000 compounds, 3.8% hits; inhibition, % (no concentration beside the values);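 active means mean and each replicate at 75% or more; inconclusive means only one of the two met; inactive means neither met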;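 further: stock transfer was 7.5 nL into about 7.5 µL; 0% = neutral wells and 100% = wells with inactivated enzyme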
# Target sequence (P55789 whole entry, looked up): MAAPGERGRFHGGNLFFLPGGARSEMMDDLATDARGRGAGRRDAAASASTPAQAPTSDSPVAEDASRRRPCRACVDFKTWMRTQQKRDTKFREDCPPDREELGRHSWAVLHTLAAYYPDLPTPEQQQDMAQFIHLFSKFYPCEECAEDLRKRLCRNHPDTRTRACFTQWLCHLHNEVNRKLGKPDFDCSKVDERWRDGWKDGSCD
# MLL AF4-AF9 inh – MLL-AF4/AF9 protein interaction inhibition; 350,000 compounds, 0.47% hits; inhibition, % at 10 µM; AlphaScreen, biotin-AF4 peptide binding to FLAG-AF9; AID 651704; P42568;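 active means every replicate reaching a set inhibition limit, whatever the replicate mean, cut at about 25% in these data; inconclusive means mean inhibition reaches that limit but some replicates miss it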;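 further: 0% = plate neutral control median and 100% = total signal loss; the record names both 10 and 1 µM as test concentration; the first replicate is given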
# E coli growth – blocks Escherichia coli growth | 330,000 compounds, 0.21% hits | OD600, 23 h; stronger effect = lower value | OD600 absorbance (no concentration beside the values) | AID 1053175;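 active means OD600 absorbance below the run mean of sample wells minus 3.6 SD, in any replicate, cut at about 0.56 in these data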;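 further: stock transfer was 300 nL into about 60 µL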
# FGF22 binding – binders of recombinant human FGF22 by thermal shift; calls only at 9.99 µM; 340,000 compounds, 1.5% hits; Q9HCT0; SYPRO orange fluorescence; percent of sucrose octasulfate shift, DMSO zero;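 active means melting point raised past a set limit in the mean and every replicate; inconclusive means no clear call; three in four hits are not shown here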
# Target sequence (Q9HCT0 whole entry, looked up): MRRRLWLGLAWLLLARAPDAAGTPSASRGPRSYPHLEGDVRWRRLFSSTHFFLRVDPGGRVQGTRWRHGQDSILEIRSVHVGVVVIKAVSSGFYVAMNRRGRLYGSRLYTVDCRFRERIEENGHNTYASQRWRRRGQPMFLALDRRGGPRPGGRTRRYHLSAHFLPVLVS
# rRNA inh HTS – inhibitors of bacterial rRNA selective over humanized ribosomes; E. coli WT GFP vs humanized-ribosome RFP mutants, fluorescence, 24 h; stronger effect = lower value; DMSO median 0, no signal -100; 350,000 compounds, 1.6% hits; AID 720706; GFP signal change (wild-type ribosome), % (test concentration not listed);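 active means significant combined selectivity score with lowered wild-type GFP, culture density cut under 30%, mutant RFP and density less affected; inactive means any of these conditions unmet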; further: one replicate is shown; some compounds called inactive have numbers as strong as hits
# HNF4A DNA FP – change in binding of human HNF4 alpha to DNA | HNF4a-FITC DNA binding, fluorescence polarization, 1 h | activity change, % at 10 µM | 360,000 compounds, 0.3% hits; in the data active means activity change above about 30%, passing the limit was not always enough;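 further: controls were the assay level and a saturating level of protein; the project sought stronger binding though the title names inhibitors; some compounds called inactive have numbers as strong as hits; positive values seem to mean higher polarization but the record does not say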
# Target sequence (P41235 whole entry, looked up): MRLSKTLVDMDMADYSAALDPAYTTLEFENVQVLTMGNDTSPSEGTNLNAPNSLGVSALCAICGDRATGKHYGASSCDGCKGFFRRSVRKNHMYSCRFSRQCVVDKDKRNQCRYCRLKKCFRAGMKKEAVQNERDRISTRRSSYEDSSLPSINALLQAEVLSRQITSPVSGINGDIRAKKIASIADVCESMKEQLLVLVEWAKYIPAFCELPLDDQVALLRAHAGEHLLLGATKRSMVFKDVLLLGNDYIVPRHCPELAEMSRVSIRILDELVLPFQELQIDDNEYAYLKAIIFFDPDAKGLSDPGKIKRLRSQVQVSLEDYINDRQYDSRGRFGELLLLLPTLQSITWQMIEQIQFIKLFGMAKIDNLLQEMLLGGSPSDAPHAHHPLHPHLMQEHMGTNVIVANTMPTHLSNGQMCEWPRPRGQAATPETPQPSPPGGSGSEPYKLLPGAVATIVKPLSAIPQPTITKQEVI
# Vif A3G – HIV-1 Vif–A3G interaction blockers – biochemical, TR-FRET, GST-Vif 1-94, biotin-A3G peptide, dose response retest, primary screen (AID 1117319); TR-FRET GST-Vif / biotin-A3G peptide binding; higher % means a stronger effect; test concentration not given here; strong numbers were not always called active; inhibition, %; hits with a dose series show IC50 in µM; 260,000 compounds, 0.57% hits;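 active means above the screen mean plus three standard deviations and confirmed in dose response; inconclusive means results disagree or hit not tested in dose response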;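 further: Vif residues 1-94 fused to GST binding biotinylated APOBEC3G peptide 110-148; 0% = full assay without inhibitor and 100% = GST in place of GST-Vif; retest series ran down from 100 µM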
# rRNA inh HTS OD600 – recorded beside rRNA inh HTS, whose call it bears; OD600 change, %; measured here: OD600 growth;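 optical density of the mix in the first replicate; 0 = DMSO median and -100 = no signal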
# rRNA inh HTS RFP – recorded beside rRNA inh HTS, whose call it bears; RFP signal change, %; measured here: RFP humanized mutant strains;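 first replicate; 0 = DMSO median and -100 = no signal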
# Active calls of the source: *; i = inactive; ? = inconclusive; . = not tested or not shown; & = joins results of further samples. Not all compounds are listed; count on the stated rates, not on these rows.
SMILES,ALR H2O2 inh,MLL AF4-AF9 inh,E coli growth,FGF22 binding,rRNA inh HTS,rRNA inh HTS OD600,rRNA inh HTS RFP,HNF4A DNA FP,Vif A3G
Cc1cccc(NC(=O)c2cc(-c3ccc(C)c(C)c3O)n[nH]2)c1,-7,-1.0,0.67,i,-17*,-8.6*,6.5*,6.8,-2%
Cc1cc(C)cc(N2C(=O)CN(Cc3sccc3C)C2=S)c1,-3,.,0.67,.,.,.,.,-1.5,.
CCOc1cc(/C=C2\N=C3CCCCCN3C2=O)ccc1O,99*,3.8,0.65,i,-6,-7,-1.5,49*,7%
COC(=O)c1ccc(N2CCN(C)CC2)c(NC(=O)COc2ccccc2Cl)c1,-12,-3.4,0.66,i,4,4,-0.3,-2.0,1%
CCCC(=O)NCCc1cc2cc(C)c(C)cc2[nH]c1=O,.,.,0.69,.,.,.,.,-2.4,2%&11%
CCOC(=O)c1cccc(NC(=O)CN2C(=O)C3CC=CCC3C2=O)c1 (centres undefined),4,-1.0,0.66,i,-6,-11,-2.6,-2.8,1%
COc1cc(O)c(C(CCN2CCCCC2)c2cc(OC)c(OC)c(OC)c2)c(OC)c1 (centres undefined),.,7.0,0.66,i,17,18,-3.1,-4.0,4%
Cc1cccc2sc(NC(=O)CCNC(=O)c3ccco3)nc12,.,-0.3,0.63,.,-30,-39,15,1.6,-7%
CN(C)CCCNC(=O)C[C@@H]1CC[C@H](NC(=O)Cc2cccnc2)[C@H](CO)O1,.,0.0,.,i,-1,-4,0.6,.,.
Cc1ccccc1NC(=O)CN1CCCC1,.,-9.8,.,i,14,13,-1.0,-1.1,-1%
O=C(Nc1ccc2nc(N3CCOCC3)sc2c1)c1ccccc1,-10,3.3,0.67,i,-5,-11,1.4,8.6,-11%
C1CCCN(c2nc3nonc3nc2N2CCCCCC2)CC1,-24,-0.7,0.65,i,-8,-10,0.5,1.5,6%
O=C(NN=C1CCCCCC1)c1ccc(Br)o1,-5,.,0.71,.,.,.,.,1.9,.
CS(=O)(=O)Nc1ccc2c(c1)[C@H]1C[C@@H](CC(=O)NCc3ccccc3F)O[C@H](CO)[C@H]1O2,.,1.5,.,i,1,0,1.0,.,.
Cc1cc2oc(=O)cc(CSc3nnc(C)n3N)c2cc1C(C)C,-8,.,0.75,.,.,.,.,0.8,2%
COc1ccc(NS(=O)(=O)c2cc(C(=O)OC(C)C(=O)N3CCOCC3)ccc2Cl)cc1 (centres undefined),0,-9.4,0.71,i,5,17,-0.4,-2.3,-4%
CC(C)NC(=O)N1[C@@H](C#N)[C@H](c2ccc(-c3ccc(F)cc3)cc2)[C@@H]1CO,.,1.8,.,i,12,-40,21,.,.
CCN(Cc1cc2ccccc2[nH]c1=O)C(=O)C(C)C,0,.,0.7,.,.,.,.,-1.0,2%
C/C=C/c1ccc([C@H]2[C@@H](CO)N(C(C)=O)[C@H]2CNC(=O)CC2CC2)cc1,.,0.5,.,i,3,8,0.6,.,.
O=C(Cn1c(O)c(/C=C2\C=Nc3ccccc32)sc1=O)Nc1ccc2c(c1)OCO2,-6,4.9,0.73,i,21,5,1.0,0.6,0%
O=C(COC(=O)c1nc(Cl)c(Cl)c(Cl)c1Cl)c1ccc[nH]1,4,-1.0,0.67,i,1,1,2.8,1.3,22%
C[C@@]12C(=O)Nc3ccc(F)cc3C(=O)N1[C@H]1c3cc(Cl)ccc3OC[C@@H]1[C@@H]2c1ccccc1,-3,-1.8,.,i,3,-1,3.7,-1.9,.
COc1cccc(N2CC(C(=O)N3CCC4(CC3)CC(=O)c3ccccc3O4)CC2=O)c1 (centres undefined),-8,-1.3,0.59,i,-4,-6,1.6,0.9,4%
O=C(c1ccc(CN2CCOCC2)cc1)N1CCN(c2cccc(Cl)c2)CC1,34,.,0.7,.,.,.,.,22,3%
CNC[C@H]1OCCCC[C@@H](C)Oc2ccc(NC(=O)Nc3ccc4c(c3)OCO4)cc2C(=O)N([C@@H](C)CO)C[C@H]1C,.,8.9,.,i,3,7,-2.0,.,.
# Later entries.
SMILES,ALR H2O2 inh,MLL AF4-AF9 inh,E coli growth,FGF22 binding,rRNA inh HTS,rRNA inh HTS OD600,rRNA inh HTS RFP,HNF4A DNA FP,Vif A3G
COc1ccc(-c2ccc(N(C)C)cc2)cc1[C@H]1[C@H]2C=CC[C@@H](C)[C@@H]2C(=O)N1Cc1ccccc1,.,.,.,i,10,9,3.8,4.0,.
C[C@@H]1CN([C@H](C)CO)C(=O)Cc2cc(NC(=O)C3CCCCC3)ccc2O[C@H]1CN(C)Cc1ccncc1,.,0.3,.,i,0,-2,2.4,.,.
CCN(CC)CCN(Cc1cc2cc3c(cc2[nH]c1=O)OCCO3)C(=S)NCCOC,.,-1.4,.,i,12,19,0.1,3.5,-3%
CCNC(=O)C(=O)c1c(-c2ccccc2)[nH]c2ccccc12,2,-0.6,0.65,i,4,6,-4.2,4.4,.
COc1ccc(NC(=O)C2CCCN(C(=O)Nc3cccc(OC)c3)C2)cc1 (centres undefined),-5,-0.7,0.6,i,1,5,-2.0,-0.3,.
COCOCCn1cc(CN2CCS(=O)(=O)N(Cc3ccc(-c4ccc(C)cc4)cc3)C(C)C2=O)nn1 (centres undefined),.,0.4,.,i,-7,-19,2.0,-2.6,.
COc1ccc(CCNC(=O)CS(=O)Cc2nc(-c3ccc(C)cc3)oc2C)cc1OC (centres undefined),99*,-0.7,0.67,i,-17,-1,0.6,-0.7,.
Cc1ccc(C)c(S(=O)(=O)N2CCN(C(=O)C3CCN(C(=O)c4ccc(F)cc4)CC3)CC2)c1,-5,-17,0.66,.,-8,-7,3.8,0.8,-7%
COc1ccccc1NC(=O)NCCCl,-8,.,0.68,.,.,.,.,1.9,?
COc1ccc2c3c([nH]c2c1)[C@@H](CO)N(C(=O)C1CCCC1)CC31CN(Cc2nccs2)C1,.,0.2,.,i,-3,1,0.8,.,.
COc1cc2oc(=O)cc(CN3CCCC3)c2cc1Cl,.,-0.4,.,i,6,11,0.5,2.6,.
CC(=O)N/C(=C\c1ccccc1)C(=O)OCc1ccc(F)cc1,-17,0.6,0.7,i,0,10,-1.1,0.2,6%
CCOC(=O)c1sc(NC(=O)c2cncc(Br)c2)nc1C,.,-7.0,0.62,i,11,18,-1.1,.,.
Nc1nc2cc(S(=O)(=O)NC3=NCCCCC3)ccc2s1,91*,-6.7,0.7,i,1,-3,-5.5,-2.1,.
CN(C)c1ccc(C(=O)OCc2ccc(Br)cc2)cc1,-4,.,0.81,.,.,.,.,-0.7,3%
CC1(C)CSC(C)(C)C(=O)N1,.,-0.3,0.69,i,4,12,1.4,-1.2,-6%
CC(c1ccccn1)N(Cc1ccco1)C(=S)Nc1cccc(F)c1 (centres undefined),-3,4.1,0.69,i,10,4,-4.8,1.9,-17%
CCN(CC)c1ccc(C(=O)Nc2ccccc2)cc1[N+](=O)[O-],-3,3.8,0.61,.,-42,-65,-8.3,2.8,-4%
CN(Cc1ccc(Cl)cc1Cl)C(=O)C1CC(=O)N(Cc2ccco2)C1 (centres undefined),.,-0.4,.,i,-2,0,-2.2,12,.
CCCCCCC(=O)Nc1nc(C)c(-c2csc(Nc3cccc(OC)c3)n2)s1,-10,13,0.73,i,5,8,3.3,12,-2%
CN(C)c1ncc(CN2CCC(C(=O)Nc3ccc(-n4cccn4)cc3)CC2)s1,-5,2.6,0.73,i,10,4,1.9,3.1,.
N#CCC(=O)N/N=C/c1cc([N+](=O)[O-])ccc1N1CCCC1,11,0.8,.,i,4,8,8.1,3.8,.
CC(C)Sc1cc(N2CCOCC2)nc(-c2ccc(Cl)cc2)n1,0,.,0.72,.,.,.,.,-0.6,1%
CC1Cc2cc(/C=C3/SC(=S)NC3=O)ccc2O1 (centres undefined),?,1.4,0.64,i,-20*,-3.3*,-3.5*,4.2,-5%
O=C(C[C@H]1CC[C@@H]2[C@H](COC[C@@H](O)CN2C(=O)Nc2ccc(Cl)cc2)O1)N1CCCCC1,.,0.4,.,i,-43,-50,-9.3,.,.

# Whole records, quoted from the list. Order of screens: ALR H2O2 inh | MLL AF4-AF9 inh | E coli growth | FGF22 binding | rRNA inh HTS | rRNA inh HTS OD600 | rRNA inh HTS RFP | HNF4A DNA FP | Vif A3G
# Profile of CN(C)c1ccc(C(=O)OCc2ccc(Br)cc2)cc1 → -4 | . | 0.81 | . | . | . | . | -0.7 | 3%
# Profile of CC(=O)N/C(=C\c1ccccc1)C(=O)OCc1ccc(F)cc1 → -17 | 0.6 | 0.7 | i | 0 | 10 | -1.1 | 0.2 | 6%
# Profile of COCOCCn1cc(CN2CCS(=O)(=O)N(Cc3ccc(-c4ccc(C)cc4)cc3)C(C)C2=O)nn1 (centres undefined) → . | 0.4 | . | i | -7 | -19 | 2.0 | -2.6 | .
# Profile of CCN(CC)CCN(Cc1cc2cc3c(cc2[nH]c1=O)OCCO3)C(=S)NCCOC → . | -1.4 | . | i | 12 | 19 | 0.1 | 3.5 | -3%

# Later entries:
SMILES,ALR H2O2 inh,MLL AF4-AF9 inh,E coli growth,FGF22 binding,rRNA inh HTS,rRNA inh HTS OD600,rRNA inh HTS RFP,HNF4A DNA FP,Vif A3G
O=C(COc1ccc(S(=O)(=O)N2CCOCC2)cc1Cl)NCCN1CCOCC1,4,-23,0.65,i,4,1,-0.4,0.3,.
OC(COc1ccc(Cl)cc1)CN1CCN(c2cccc(Cl)c2)CC1 (centres undefined),-1,-0.2,0.55,i,-58,-82,-17,-5.2,?
COC(=O)c1csc(S(=O)(=O)N2CCCCC2)c1OC,-2,0.7,0.69,i,-6,1,-2.5,-3.0,-5%
C[C@@H]1CN([C@@H](C)CO)C(=O)c2cc(NS(C)(=O)=O)ccc2O[C@H]1CN(C)Cc1ccncc1,.,-1.2,.,i,4,2,-4.0,.,.
Cc1cc(-c2csc3nc[nH]c(=S)c23)cc(C)c1C,97*,10,0.69,i,-53,48,-3.0,2.4,4%
O=C(NC1CCS(=O)(=O)C1)/C(=C\c1ccc(F)cc1)NC(=O)c1ccccc1 (centres undefined),-9,-0.2,0.65,i,9,5,-1.8,-1.9,.
COc1cccc(CNS(=O)(=O)c2c(C(=O)N3CCCC3)c(C)n(C)c2C)c1,-3,0.3,0.68,i,5,6,0.2,2.3,.
Cc1cccc(NC(=O)CN2C(=O)c3ccccc3C2=O)c1C,2,-3.3,0.68,i,29,20,5.9,-1.9,-8%
Cc1c(S(=O)(=O)N(C)C2CCCCC2)c(=O)n(C)c(=O)n1C,3,6.5,0.68,i,2,2,-1.3,-2.1,3%
CC(C)c1nc2sc3c(=O)[nH]c(=S)[nH]c3c2c2c1CCCC2,-6,-5.9,0.68,i,12,-4,1.1,-4.5,-7%
c1ccc2c(c1)OCCc1c-2[nH]c2ccccc12,96*,5.3,0.65,i,-24,-40,7.5,4.9,-5%
CC1CCN(C(=O)Cn2c(=O)oc3cc(S(=O)(=O)N4CCCCC4)ccc32)CC1,-5,-2.0,0.69,i,11,7,1.0,-3.8,.
O=C(NNS(=O)(=O)c1ccc(F)cc1)c1cccc(O)c1,51,-1.9,0.66,i,-3,1,-1.0,-3.2,-7%
CN1CCN(c2ccc(NC(=O)c3ccc(-c4cccc([N+](=O)[O-])c4)o3)cc2)CC1,43,22,0.65,i,-4,5,-4.7,1.6,8%
CNC(=S)N(Cc1cc2cc(C)ccc2n2nnnc12)CC(C)(C)CN(C)C,37,-22,0.71,i,2,10,1.3,-2.7,.
CC[N+]1(C)CCC(O)(c2ccc(OC)cc2)C(C(=O)c2ccc(OC)cc2)C1 (centres undefined),.,-0.8,.,i,11,17,2.3,13,.
COc1ccc2c3c(n(C)c2c1)[C@@H](CO)N(Cc1ccccc1F)CC31CN(C(C)=O)C1,.,-8.6,.,i,-1,4,-1.4,.,.
